PABP FP inh: PABP-poly(A) binding inhibition; P11940; PABP-poly(A) RNA binding, fluorescence polarization; inhibition, % at 35 µM; 1% of 290,000 active; AID 2014;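 active means 50% or more with normal probe brightness, or confirmed in later tests; inconclusive means above 50% with abnormal brightness, or retests that disagree; inactive means below 50% or failed in later tests; about a fifth of its hits are not listed in these tables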;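 further: calls also rest on retests at 20 µM and on dose response follow-up; controls were probe without protein and protein plus probe with vehicle; some compounds called inactive have numbers as strong as hits; many hits fall short of the cut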
HIV Env fusion: blocks HIV Env-driven cell-cell fusion; HeLa-JRFL Env/CEM21 cell fusion, luciferase; inhibition, % at 12.3 µM; 1.1% of 360,000 active;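 active means mean replicate inhibition score of at least 50 and every replicate individually at or above 50; inconclusive means only one of the two criteria met; inactive means mean below 50 and not all replicates reaching 50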;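 further: 0% = plate neutral controls and 100% = maraviroc near 300 nM; one replicate is shown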
CSC inhib: blocks cancer stem cells; cancer stem cell-like cells viability, luminescence; inhibition, % at 7.5 µM; 1.1% of 300,000 active;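 active means mean at 75% or more and at least half the replicates too; inconclusive means mean and replicates disagree; tested in HMLE shEcad cells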;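 further: 0% = median of negative and 100% = median of positive control wells; the first replicate is given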
Rce1 inhib: yeast Ras-converting enzyme inhibition | Q03530 | yeast membranes, quenched prenylated peptide cleavage fluorescence | calls only | 0.27% of 290,000 active;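 active means fall in fluorescence gain of 50% or more versus controls, with final raw signal at or below 3038400; inconclusive means same 50% fall but final raw signal above 3038400; inactive means fall in fluorescence gain under 50%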;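 further: plate controls were neutral control wells for no effect and wells lacking membranes for full effect; tested at 10 µM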
Target sequence (Q03530 whole entry, looked up): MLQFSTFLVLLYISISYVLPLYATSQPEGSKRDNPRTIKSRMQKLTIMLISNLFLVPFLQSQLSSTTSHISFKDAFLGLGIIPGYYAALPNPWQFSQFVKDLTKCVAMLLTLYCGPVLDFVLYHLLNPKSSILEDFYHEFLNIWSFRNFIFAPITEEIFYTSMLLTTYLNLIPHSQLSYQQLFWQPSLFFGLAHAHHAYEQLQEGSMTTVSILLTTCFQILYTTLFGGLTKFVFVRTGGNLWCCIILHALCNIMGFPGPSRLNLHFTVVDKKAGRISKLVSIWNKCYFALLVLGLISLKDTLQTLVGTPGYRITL
UUG fidelity: yeast start codon fidelity modulation | S. cerevisiae UUG-firefly luciferase reporter, luminescence/redox ratio | 0.13% of 350,000 active | activity score, % at 18.7 µM;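 active means replicate mean at a twofold rise or more, about +100% in these data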;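 further: firefly luciferase made from a UUG start codon reports start codon fidelity; reporter light over untreated wells divided by growth signal over untreated wells; some hits fall short of that in this replicate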
eIF4H inh: inhibitors of RNA binding by human eIF4H; 0.94% of 290,000 active; eIF4H fluorescence polarization binding assay; inhibition, % at 35 µM; AID 2012; Q15056;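 active means 50% or more with normal probe brightness, or confirmed in later tests; inconclusive means above 50% with abnormal brightness, or retests that disagree; inactive means below 50% or failed in later tests; about a fifth of its hits are not listed in these tables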;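 further: calls also rest on retests at 20 µM and on dose response follow-up; 0% = protein and probe with vehicle and 100% = probe without protein; strong numbers were not always called active; many hits fall short of the cut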
MT1-MMP act inh: blocks activation of human MT1-MMP | HT1080 RFP-PRO-GFP cells, GFP/RFP ratio fluorescence, overnight; percent of plate control window, DMSO zero | GFP/RFP ratio change, % at 20 µM | 0.061% of 360,000 active | AID 651647 | P50281;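 active means GFP/RFP ratio change of at least 30% with cell ATP level not reduced by more than half and red fluorescence within 50% of control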; further: strong numbers were not always called active
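Assay system: HT1080 cells carrying an RFP-PRO-GFP reporter | Dosing: Single dose of 20 µM compound, 1% DMSO final | Incubation: Cells overnight before dosing, compound overnight, 37 °C, 5% CO2 | Evaluation: GFP/RFP fluorescence ratio | Control set: DMSO and RFP-L50D-GFP cell wells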
eIF4H inh retest: further read-out of eIF4H inh, marked with its call; inhibition, %; compound at 20 µM; confirmation average;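 mean of two retest wells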
PABP FP inh retest: also measured in PABP FP inh; calls as there; inhibition, %; compound at 20 µM; confirmation repeats;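 mean of two retest wells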
MT1-MMP act inh RFP: also measured in MT1-MMP act inh; calls as there; RFP signal change, %; measured here: RFP expression control read;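 0 = vehicle wells; hits needed this value within 50% of zero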
An asterisk follows results filed as active; i = inactive; ? = inconclusive; . = not tested or not shown; & = joins results of further samples; [ ] = dose if it differs, or a comment.

SMILES	PABP FP inh	HIV Env fusion	CSC inhib	Rce1 inhib	UUG fidelity	eIF4H inh	MT1-MMP act inh	MT1-MMP act inh RFP	others
COc1ccc(NC(=O)C2CCC(CNS(=O)(=O)c3cccs3)CC2)cc1OC (configuration not stated)	-4	11	-8	i	.	-6	-3	1
Cc1ccc(N=Nc2ccc(O)c(/C=N\NC(=O)c3ccc(N)cc3)c2)cc1C	-13	3	11	i	-20	42	6	3
CCC(Cc1ccccc1)NC(=O)Cn1cccc1C(=O)c1ccccc1 (configuration not stated)	.	7	-9	i	-1	.	-5	-5
Cc1ccc(N(C(=O)c2sc(C)nc2C)C(C(=O)NCc2ccco2)c2ccccc2)cc1 (configuration not stated)	-2	.	20	i	-14	-3	-6	-1
O=[n+]1c2c(n([O-])c3c1CCCC3)CCCC2	14	-87	.	i	-12	3	-1	1
COC(=O)c1ccc(Oc2nc(N(C)C)nc(N3CCOCC3)n2)cc1	2	28	-5	i	-3	-1	-7	-6
O=C(CSc1ncnc2c1nnn2Cc1ccc(F)cc1)NCC1CCCO1 (configuration not stated)	-1	-5	3	i	-10	-11	4	-4
COc1ccc2[nH]c(C(=O)Nc3ccccc3Cl)cc2c1	7	-132	21	i	.	-7	.	.
COc1ccc(C)cc1NC(=O)CCNS(=O)(=O)c1ccc2c(c1)CCC(=O)N2	8	8	2	i	-1	-11	-4	-2
O=C(CSCc1ccccc1)N1CCN(C(=O)c2ccco2)CC1	6	.	-11	i	.	3	0	0
Cc1nnc(SC(C)C(=O)Nc2c(C)n(C)n(-c3ccccc3)c2=O)n1N (configuration not stated)	-7	-28	-10	i	.	2	-1	1
CSc1cccc(NS(=O)(=O)c2ccc3c(c2)oc(=O)n3C)c1	1	-15	-6	i	8	12	1	-10
COC(=O)c1ccc(CNC(=O)Cn2cnc(C(=O)Nc3ccc(C)c(C)c3)n2)cc1	.	-13	.	.	-5	.	2	1
CC1(C)CC(=O)C(C2C3=C(CC(C)(C)CC3=O)Oc3ccc4ccccc4c32)C(=O)C1 (configuration not stated)	5	-13	1	i	.	5	0	-6
Cc1ccc2cc(C)c(N3CCC(C)CC3)nc2c1	-12	-4	-18	i	.	-12	-4	-3
c1ccc(Cn2c[n+](Cc3ccccc3)c3ccccc32)cc1	-6	-22	13	i	-8	0	1	-7
CS/C(=N/S(=O)(=O)c1ccc(C)cc1)c1ccccc1	-8	.	-6	i	.	0	-4	-5
CCOc1ccc(N)cc1OC	18	9	12	i	-24	85	6	7	eIF4H inh retest=0;PABP FP inh retest=1
COc1ccc(N2CC(C(=O)N[C@@H](C)C(=O)NCCc3ccccc3)CC2=O)cc1 (some centres not stated)	-6	3	-10	i	-4	-6	0	1
COc1ccc(S(=O)(=O)n2cnc(C)c2)cc1	0	15	13	i	.	18	2	4
CC(C)n1nnnc1SCC(=O)NCc1ccc2c(c1)OCO2	0	-48	1	i	-16	5	-10	1
CCC(CC)NC(=O)/C=C/c1cccc([N+](=O)[O-])c1	0	7	-23	i	.	3	4	4
CCN(CC)c1ccc(/C=C(\C#N)C(=O)NCc2ccco2)cc1	19	7	30	.	.	5	.	.
CCOC(=O)C(=O)/C(=C\N(C)C)c1onc(-c2ccccc2Cl)c1C(=O)OC	-2	.	-9	i	.	1	-2	10
Cc1cc(C)cc(NCC(=O)Nc2c(C)cccc2C)c1	-1	-36	2	i	-15	-3	-19	-16
COc1cc(-c2noc(C)c2C(=O)NCCCN2CCOCC2)cc(OC)c1OC	.	-5	-7	.	8	.	-2	1
CC1CCCN(c2oc(-c3cccc4ccccc34)nc2C#N)C1 (configuration not stated)	?	-107	-2	i	-3	?	5	8
CC(=O)C1=C(C)NC(SCC(=O)c2ccc(Cl)cc2)=C(C#N)C1CC(C)C (configuration not stated)	10	.	54	i	.	-4	-1	-2
Cc1nc(-c2ccc(Cl)cc2)sc1C1(C)CC(c2ccccc2)=NO1 (configuration not stated)	.	-40	14	i	-11	.	-1	2
Cc1c(C)n(-c2ccccc2)c2ncnc(NCCN(C)C)c12	-1	8	-5	i	4	2	2	0
O=C(Cn1c(=O)[nH]c2ccccc2c1=O)Nc1ccc2c(c1)OCCO2	1	-7	-9	i	-11	-18	-4	-1
CC1(C)N=C(c2ccccn2)C(C)(C)N1O	-9	-18	-3	i	-12	-1	-4	4
CCN1CCN(CCCNC(=O)c2cc3cc4ccc(OC)cc4nc3o2)CC1	-5	.	0	?	1	-12	15	1
Cn1c(N)c(S(=O)(=O)NCc2ccccc2Cl)c(=O)n(C)c1=O	-4	-3	.	i	.	0	1	6
CCCC/C(O)=C1\C(=O)CCCC1=NCCc1c(C)[nH]c2ccc(OC)cc12	12	6	2	i	-1	-9	-1	-2
CCOC(=O)C1=NNC2C(=O)N(Cc3ccccc3)C(=O)C12 (configuration not stated)	-3	15	-4	i	.	-10	3	3
COc1ccc(Cl)cc1NC(=O)c1cc(C)no1	6	16	-9	i	-13	-10	-4	-1
O=C(CCc1nc2ccccc2c(=O)[nH]1)NNC(=O)c1ccc(Cl)cc1	.	.	-4	i	-10	.	3	-5
O=C(N/N=C/c1c[nH]c2ccccc12)c1cc(Cl)ccc1O	10	-21	1	i	-22	2	5	2
Cc1onc(C(=O)N2CCN(C(c3ccccc3)c3ccccc3)CC2)c1[N+](=O)[O-]	-4	-2	16	i	-8	3	-11	-6
O=C(CCN1C(=O)NC2(CCCC2)C1=O)Nc1cccc(S(=O)(=O)N2CCOCC2)c1	.	.	18	.	-4	.	-1	2
O=C(O)c1cc(=O)[nH]c2c(Cl)cccc12	-6	17	-1	i	-16	-8	-3	2
CN(C)c1ccc(-c2noc(-c3ccccc3O)n2)cc1	-9	-254	-3	i	-14	-16	-1	8
O=C(Oc1ccccc1C(=O)N1CCOCC1)c1cccc(Br)c1	16	.	-3	i	-5	-2	4	8
Cc1ccc(S(=O)(=O)NCc2csc(C)n2)c(C)c1	6	.	4	i	-2	-1	1	5
COCCCNC(=O)c1c(NC(=O)C2COc3ccccc3O2)sc2c1CCCC2 (configuration not stated)	0	-120	0	i	-20	9	-11	-8
CCOC(=O)CNC(=O)COc1coc(CN2CCN(Cc3ccccc3)CC2)cc1=O	12	1	-4	i	-26	3	-3	2
O=C(NCC1CCCCC1)c1cc([N+](=O)[O-])ccc1N1CCOCC1	-2	4	-10	i	.	-2	0	5
CCNC(=O)Nc1ccc2c(c1)c(=O)n(C)n2Cc1ccc(Cl)cc1	.	0	.	.	-21	.	0	2
CCOC(=O)C1CCCN(c2c(NCCC(C)C)c(=O)c2=O)C1 (configuration not stated)	5	-3	0	i	-1	-8	1	1
CC(C)(C)NC(=O)CN(CCN1CCOCC1)C(=O)CNS(=O)(=O)c1ccc(Cl)cc1	-1	-7	-19	i	-3	1	0	3
Cc1ccc([N+](=O)[O-])cc1Nc1nc(N2CCOCC2)nc(N2CCOCC2)n1	-7	18	0	i	.	-8	-1	-4
C[C@H]1CN([C@@H](C)CO)S(=O)(=O)c2ccc(Br)cc2O[C@H]1CN(C)C(=O)Nc1ccccc1F	.	-5[16.7 µM]	.	.	-19&-2	.	1	1
CC(Sc1n[nH]c(=O)[nH]c1=O)C(=O)OCc1ccccc1 (configuration not stated)	13	.	.	i	-5	14	5	5
C[N+](C)(C)CCCN1C(=O)CCCC1=O	43	.	7	i	-15	4	4	3
COc1ccc(-c2nc(N)ncc2-c2ccccc2OC)c(O)c1	15	3	-26	i	13	-4	-2	-2
O=C(CCn1cnnn1)Nc1ccc(Cl)c(Cl)c1	-7	-36	22	i	-12	0	-6	3
COc1cc(Cl)ccc1OCc1cc(C(=O)N2C[C@H]3CC[C@H]2C3)no1	6	-33	0	i	-2	0	-1	-2
C#CCNC(=O)C1=C[C@H](C(C)(C)C)C[C@H](OCc2ccc(CO)cc2)O1	1	-1	5	i	-12	2	-1	1
O=C1C=C(c2cccc3c2Oc2ccccc2S3)C[C@@H](c2ccc(Cl)cc2)C1	.	0	-3	.	-7	.	-4	-10

Further structures follow.
SMILES	PABP FP inh	HIV Env fusion	CSC inhib	Rce1 inhib	UUG fidelity	eIF4H inh	MT1-MMP act inh	MT1-MMP act inh RFP	others
C[N+]12CCCCC1C(COC(=O)c1ccc3c(c1)OCO3)CCC2 (configuration not stated)	64	.	-4	i	-15&1	-8	-4	1	eIF4H inh retest=-5;PABP FP inh retest=6
O=c1c(Oc2ccccc2Br)c(C(F)(F)F)oc2c(CN3CCCC3)c(O)ccc12	-4	11	-28	.	8	-3	1	0
CCOC(=O)C1=NN(c2ccc(C)cc2)C2(S1)SC(C(C)=O)=C(C)N2c1ccccc1 (configuration not stated)	-5	-83	-3	i	-20	-7	-9	-9
CCn1c(SCC(=O)NNC(=O)c2ccc(OC)cc2)nnc1-c1ccco1	-4	-14	-2	i	.	-2	4	0
CCN(CC(=O)Nc1c(F)cccc1F)C(=O)c1cccc(-n2cnnn2)c1	.	-7	.	.	-32	.	-1	6
Cc1cccc([N+](=O)[O-])c1C(=O)O	.	.	5	.	-3	.	0	8
CCn1ncc(-c2cc(C(=O)O)no2)c1C	-6	12	1	i	.	-6	.	.
C[C@H]1CN([C@@H](C)CO)C(=O)CCCn2nncc2CO[C@@H]1CN(C)C(=O)c1ccc2ccn(C)c2c1	.	19	.	.	-8&-2	.	2	4
C/C(=N\NC(=O)c1ccccc1NC(=O)c1ccc(Cl)cc1)c1ccncc1	-3	-131	136*	i	.	-6	1	3
Cc1c(CC(=O)N[C@@H](C)C(=O)O)c(=O)oc2cc3oc4c(c3cc12)CCCC4	11	-9	-13	i	.	7	3	0
COCCN1Cc2cccc(C(=O)N3CCN(c4cc(C)ccc4C)CC3)c2C1=O	10	-15	1	i	0	-8	-8	-4
N#Cc1ccccc1NC(=O)CC1c2ccccc2Oc2ccccc21	-10	.	.	i	-15	-5	3	1
O=C(O)C1CSC2(CCN(Cc3ccccc3)CC2)N1 (configuration not stated)	-10	.	.	i	4	-1	-2	5
CC(=O)c1cc2c(cc1NC(=O)CN(C)S(=O)(=O)c1cccs1)OCO2	.	-26	0	.	-9	.	3	-1
CN(CC(=O)Nc1c(Cl)cccc1Cl)CC(=O)N(C)C1(C#N)CCCCC1	.	.	2	.	-9	.	2	-7
CC1C(=O)N2CCCc3cc(S(=O)(=O)Nc4ccccc4F)cc1c32 (configuration not stated)	.	4	0	i	-17	.	-1	4
COc1ccc(OC)c(C2=NS(=O)(=O)N(C)C(C(=O)Nc3cccc(C(C)=O)c3)=C2)c1	1	-6	-2	i	5	-14	2	-4
O=C(Nc1cccs1)Nc1c(F)c(F)cc(F)c1F	2.5*	7	-4	i	11	69*	-5	3	eIF4H inh retest=108*;PABP FP inh retest=106*
CN(CCc1cn[nH]c1)Cc1nc(Cc2ccccc2F)no1	3	11	1	i	.	0	5	5
O=C(Nc1cccc2ccccc12)C(=O)C1C(=O)Nc2ccccc21 (configuration not stated)	3	4	-12	i	-15	11	2	7
CCN(c1ccccc1)S(=O)(=O)c1ccc2[nH]c(=O)c(=O)[nH]c2c1	2	-6	-3	i	0	10	0	5
COc1ccc(Cn2ccnc2CO)cc1[N+](=O)[O-]	-3	9	-2	i	.	-2	-4	7
Cc1c(C2(O)CCCCC2)[nH]c2ccc(C#N)cc12	.	43	-13	.	-1	.	3	-14
